High-throughput results: PubChem BioAssay, National Center for Advancing Translational Sciences (NCATS)
Vaccinia mCherry: inhibitors of vaccinia virus infection (mCherry reporter signal). Vaccinia virus mCherry reporter infection, fluorescence; about a quarter of the inactives have no number. Potency, µM (titrated, usually from 36.5 µM), for inactives: top-dose activity change, negative = inhibition, actives largely listed as inhibitors. actives 0.63% (n = 310,000); active = well fitted inhibition curve with a large enough effect; inconclusive = small, poorly fitted or top-dose-only effect; inactive = no such curve, though single readings can be large or run the other way; tested in A549 cells; also: nearly all actives have a fitted effect of over 35% in size; inactives centre near -10
Vaccinia Venus: vaccinia inhibition (Venus reporter); Vaccinia virus Venus reporter expression, fluorescence; Potency, µM (titrated, usually from 36.5 µM), inactives show at the highest dose activity change, negative = inhibition, usual class: inhibitors; actives 0.46% (n = 330,000); AID 720580; active means well fitted inhibition curve with a large enough effect; inconclusive means small, poorly fitted or top-dose-only effect; inactive means no such curve, though single readings can be large or run the other way; tested in A549 cells; also: nearly all actives have a fitted effect of over 30% in size; inactives centre near -10
An asterisk follows results filed as active; i = inactive; ? = inconclusive; . = not tested or not shown; & = joins results of further samples; [ ] = another dose, or the depositor's remark. % is scaled to controls: 0 for no effect and ±100 for the full control effect; potency is read from the fitted curve at half-maximal effect. Rows are unselected; 0.87% or so of the library scored in one or more.

#	Structure	Vaccinia Venus	Vaccinia mCherry
1	CCc1nnc(NC(=O)c2ccc(COc3ccccc3C)o2)s1	-3%	22%
2	O=C(Nc1ccccc1C(=O)O)c1ccc(Br)o1	-13%	-17%
3	COc1ccc(CNC(=O)COC(=O)[C@H](Cc2c[nH]c3ccccc23)NC(=O)c2cccs2)cc1	1%	-8%
4	Cc1ccc(N(Cc2cccs2)C(=O)COc2ccccc2[N+](=O)[O-])cc1	-12%	-13%
5	COc1cc(C2SCC(=O)N2CCN2CCCCC2)ccc1O (stereo not drawn)	4%	-3%
6	COc1ccc(-c2ccc(-c3noc(-c4ccccc4OC)n3)c(OC)n2)cc1	-2%	-10%
7	CCOc1ccc(NC(=O)CSc2nc3nc4c(cc3c(=O)n2CC)COC(C)(C)C4)cc1	0%	15%
8	CCCn1nc(C(=O)NNC(=O)CSCC(=O)Nc2cc(C)on2)c2ccccc2c1=O	-25%	-9%
9	O=c1[nH]c(=S)[nH]c(O)c1N=Nc1ccc2c(c1)OCCO2	4%	-7%
10	COC(=O)c1ccc(COC(=O)CNC(=O)c2ccco2)cc1	-13%	-15%
11	CCc1ccccc1NC(=O)CCS(=O)(=O)c1cccc2nonc12	-1%	-11%
12	Cc1ccc(-n2ncc(C(=O)N3CCN(c4cc(Cl)ccc4C)CC3)c2C2CCN(C(=O)OC(C)(C)C)CC2)cc1	-22%	-13%
13	CC(=O)NN1C(=O)c2ccccc2NC1c1ccccc1 (stereo not drawn)	-24%	-11%
14	CCOC(=O)c1c(C)n2c3c(cc(C)cc13)CCC2	1%	i
15	Cc1ccc(C(=O)Nc2ccc(C)c(S(=O)(=O)N(C)C)c2)s1	-24%	-24%
16	CN(CCc1ccccn1)C1CCCN(S(=O)(=O)c2ccccc2)C1 (stereo not drawn)	-12%	-12%
17	COCC(C)NCc1cccc(OC)c1OC (stereo not drawn)	-10%	-22%
18	COc1ccccc1Nc1nc(N)nc(CN2CC(C)CC(C)C2)n1 (stereo not drawn)	-8%	-14%
19	C/C(=N\NC(=O)C(=O)N/N=C(\C)c1cccc(O)c1)c1cccc(O)c1	11%	11%
20	Cc1cccc(NC(=O)CNC(=O)CNC(=O)Cc2ccccc2)c1	-5%	-14%
21	CCOc1ccc(S(=O)(=O)N2CCN(CCNS(=O)(=O)c3ccc(C)cc3)CC2)cc1	-12%	i
22	COC(=O)[C@@H]1[C@H]2C[C@H]3c4[nH]c5ccccc5c4CCN3C[C@@H]2CC[C@@H]1O	-15%&-18%	-6%&-2%
23	COc1cccc(N=Nc2ccc3cccnc3c2O)c1	?	?
24	COc1ccc(CCC(=O)N2c3ccccc3N=C(c3ccc4c(c3)OCO4)C2C(=O)Nc2ccc(OC)cc2)cc1 (stereo not drawn)	-8%	-21%
25	C[C@@H]1CN([C@H](C)CO)C(=O)CCCn2cc(nn2)CO[C@H]1CN(C)S(=O)(=O)c1ccc(C#N)cc1	-2%	0%
26	CCNC(=O)OCc1cn(-c2ccc(Cl)cc2)nn1	5%	8%
27	COc1ccccc1N1CCN(C(=O)CCCn2c(=S)[nH]c3ccccc3c2=O)CC1	?	?
28	O=C(CN(c1ccc(F)cc1)S(=O)(=O)c1ccc2c(c1)OCCO2)NCc1ccccc1	-18%	-12%
29	CCc1nnc(SCC(=O)Nc2ccc(N3CCN(S(C)(=O)=O)CC3)cc2)o1	17%	-16%
30	COc1ccc2c(c1)C(O)C(CO)C(C(=O)O)C2 (stereo not drawn)	-14%	-15%
31	CN1C(C(=O)NCCc2cccs2)CC2Cn3c(nc4ccccc43)C21 (stereo not drawn)	-8%	-2%
32	Cn1nnc2cc(C(=O)Nc3ccc4ccccc4c3)ccc21	8%	i
33	COc1ccc(CCNC(=O)C2CCCN(S(=O)(=O)N3CC(C)CC(C)C3)C2)cc1OC (stereo not drawn)	4%[7.34 µM]	-9%[7.34 µM]
34	COc1ccc(OC)c(NC(=O)Cn2c(=O)n(-c3ccc(Cl)cc3)c(=O)c3c(C)c(C)sc32)c1	?	?
35	O=C(NCC(O)c1ccc([N+](=O)[O-])cc1)C1=COCCO1 (stereo not drawn)	-15%	-1%
36	O=C(COC(=O)/C=C/c1ccccc1[N+](=O)[O-])NCC1CCCO1 (stereo not drawn)	16%	i
37	CCCCC(=O)Nc1c(C(=O)N2CCN(c3ccccc3F)CC2)oc2ccccc12	-28%	?
38	COC(=O)c1ccc(CN2C(=O)NC3(CCCCC3)C2=O)cc1	-7%	i
39	O=C(CC1C(=O)NCCN1C(=O)Nc1ccc(F)cc1F)Nc1cc(Cl)ccc1Cl (stereo not drawn)	-10%	i
40	CCOC(=O)c1cnc2cc(C(F)(F)F)ccc2c1Nc1ccc(F)cc1F	-4%	-12%
41	Cn1cnc(S(=O)(=O)N2CCC(C(=O)NCc3ccc(Cl)cc3)CC2)c1	-10%	-15%
42	NC1=NC[C@@H](Cc2ccc(O)cc2)N1CCCCC1CCCCC1	-21%	-3%
43	Cc1csc(NC(=O)CSc2nnc(-c3ccc(S(=O)(=O)N4CCCC4)cc3)o2)n1	4.5µM*	3.2µM*
44	CCC(C)N1C(=O)/C(=C\c2cnc(N(C)C)nc2)C(=O)NC1=S (stereo not drawn)	12%	7%
45	Cc1cc(O)cc(=O)o1	-9%	-11%
46	O=C(COC(=O)c1ccco1)Nc1cccc(S(=O)(=O)N2CCOCC2)c1	-6%	-13%
47	Cc1ccc(N=Cc2cc3c(cc2O)OC(N)=C(C#N)C3c2ccccc2)cc1 (stereo not drawn)	-22%	-8%
48	Cc1ccc(S(=O)(=O)NCC(=O)N/N=C/c2ccc(Cl)cc2Cl)cc1	-15%	-5%
49	CC(=O)NC1CCN(CC(=O)Nc2nccs2)CC1	-10%	i
50	COc1ccc(N2CCN(C(=O)c3ccc(C(C)(C)C)cc3)CC2)cc1	-26%	.
51	CCCCOC(=O)C(C)Nc1n[nH]c(=O)[nH]c1=O (stereo not drawn)	-5%	.
52	COc1cccc(C2Nc3cc(Cl)c(S(N)(=O)=O)cc3S(=O)(=O)N2)c1 (stereo not drawn)	-3%	-12%
53	CCCCn1c(=O)[nH]c2nc3cc(NC(C)=O)ccc3nc2c1=O	-5%	-6%
54	CCOC(=O)c1ccc2c(c1)[C@@H]1C=CC[C@@H]1[C@H](c1cccc(OC)c1OC)N2	-13%	-9%
55	OCCN1CCN(CC/C=C2/c3ccccc3Sc3ccc(C(F)(F)F)cc32)CC1	-29%	-16%
56	COc1cccc(C2C(C(=O)Nc3ccc(C)cc3C)=C(C)Nc3nc4ccccc4n32)c1OC (stereo not drawn)	0%	-16%
57	Cc1ccc(C)c(NC(=O)/C(C#N)=C/c2cn(CC(=O)NCc3ccco3)c3ccccc23)c1	-12%	i
58	CC12CCC(c3c(C(=O)Nc4nccs4)nn(-c4ccccc4)c31)C2(C)C (stereo not drawn)	-11%	-4%
59	CC(C)(C)c1ccc(-c2nc(C=O)c3ccccn23)cc1	-24%	-27%
60	Cc1nc(C(=O)NNC(=O)c2ccc(Cl)cc2)c(C(F)(F)F)o1	-11%	-24%

Remaining list, next part:
#	Structure	Vaccinia Venus	Vaccinia mCherry
61	O=C(c1ccsc1)N1CCCC(Nc2cccc(F)c2)C1 (stereo not drawn)	-1%	-10%
62	O=C(CSc1nnc2c(n1)[nH]c1ccc(F)cc12)N1CCOCC1	1%	i
63	CCc1cccc(CC)c1N1C(=O)COCC1=O	-5%	-6%
64	COc1ccc(CSc2nnnn2-c2ccccc2)cc1	-19%	.
65	CC(C)Cc1cc(C(C)(C)C)ccc1OC(=S)N(C)C	1%	i
66	Cc1cccc(-n2ncc(C(=O)N3CCN(C4CCCCC4)CC3)c2C2CCN(C(=O)OC(C)(C)C)CC2)c1	-13%	-28%
67	CCC(CO)Nc1ccn2nc(-c3cccc(Cl)c3)cc2n1 (stereo not drawn)	-7%	-11%
68	Cc1cccc(C)c1Nc1sc(C(=O)c2ccccc2)c(N)c1C(=O)Nc1ccc(F)cc1	?	?
69	COCCn1nnnc1C(c1ccc(OC)cc1)N1CCN(C(=O)c2ccco2)CC1 (stereo not drawn)	-1%	-5%
70	CCC(=O)Nc1ccc(NC(=O)CSc2nnnn2CC)cc1C	-11%	i
71	Nc1ccc2nc(SCC(=O)N3CCOCC3)sc2c1	-15%	-28%
72	Cc1cc(C)nc(NCCO)n1	1%	4%
73	CCCc1nc2c(o1)CC(CC(C)SCC)CC2=O (stereo not drawn)	-3%	.
74	COc1ccc(-n2nc(C(=O)NCC(=O)N(C)Cc3ccccc3)c3ccccc3c2=O)cc1OC	1%	i
75	O=C(c1ccc([N+](=O)[O-])s1)N1CCN(c2ccccn2)CC1	?	?
76	CCN(CC)S(=O)(=O)c1ccc(C(=O)NCCOC(=O)c2ccc(F)cc2F)cc1	-4%	i
77	COc1ccc(-n2nnnc2CNC(=O)c2ccc3ccccc3c2)cc1	-21%	-12%
78	COc1ccc(/C=N/n2c(-c3ccco3)nc3ccccc3c2=O)cc1	-14%	-19%
79	Cc1ccc(NC(=O)CN(C)C(=O)CSc2nnc(C(F)(F)F)n2C)cc1	-11%	-13%
80	CCC(C)/C(C)=N/NC(=O)c1cn(-c2ccccc2)nc1-c1ccccc1 (stereo not drawn)	-28%	?
81	NCCCC[C@@H]1NC(=O)c2cc([N+](=O)[O-])cc(I)c2SC[C@@H](C(N)=O)NC(=O)[C@H](Cc2ccc(O)cc2)NC1=O	-22%	i
82	CCOc1c(C#N)c(C#N)c2nc(C)cc(C)n12	-9%	.
83	CC(C)NC(=O)C1CCN(C(=O)N(C)C)CC1	-12%	-12%
84	O=C1c2ccccc2C(c2nc3ccccc3[nH]2)N1c1ccccn1 (stereo not drawn)	-1%	14%
85	Cc1ccc(-c2csc(NC(=O)/C=C/c3cccs3)n2)cc1C	-27%	?
86	Cc1cccc2cc3c(NC(=O)CC(C)C)nn(C)c3nc12	2%	.
87	O/C(=C\Sc1nnc(Cc2ccccc2)o1)c1ccc(F)cc1	-8%	-13%
88	O=C(CN(C(=O)c1csnn1)c1cccc2ccccc12)NC1CCCC1	6%	0%
89	COc1ccccc1NC(=O)CSc1nnc(CC(=O)Nc2ccccc2)n1C	-10%	-14%
90	NS(=O)(=O)c1ccc(CCNC(=O)C2CCCO2)cc1 (stereo not drawn)	3%	-14%

Sorted by number of heavy atoms (ascending): some entries from above.
#	Structure	Vaccinia Venus	Vaccinia mCherry
65	CC(C)Cc1cc(C(C)(C)C)ccc1OC(=S)N(C)C	1%	i
67	CCC(CO)Nc1ccn2nc(-c3cccc(Cl)c3)cc2n1 (stereo not drawn)	-7%	-11%
76	CCN(CC)S(=O)(=O)c1ccc(C(=O)NCCOC(=O)c2ccc(F)cc2F)cc1	-4%	i

Compounds shown so far that contain a CF3 group (four):
#	Structure	Vaccinia Venus	Vaccinia mCherry
40	CCOC(=O)c1cnc2cc(C(F)(F)F)ccc2c1Nc1ccc(F)cc1F	-4%	-12%
55	OCCN1CCN(CC/C=C2/c3ccccc3Sc3ccc(C(F)(F)F)cc32)CC1	-29%	-16%
60	Cc1nc(C(=O)NNC(=O)c2ccc(Cl)cc2)c(C(F)(F)F)o1	-11%	-24%
79	Cc1ccc(NC(=O)CN(C)C(=O)CSc2nnc(C(F)(F)F)n2C)cc1	-11%	-13%

The listing continues.
#	Structure	Vaccinia Venus	Vaccinia mCherry
91	CCOC(=O)Cn1c(-c2nonc2NC(=O)c2ccccc2F)nc2ccccc21	10%	10µM*
92	O=C(Cn1c(N2CCN(c3ccccc3)CC2)nc2ccccc21)c1ccccc1	-16%	.
93	COc1ccc(CCNC(=O)c2ccc(N(C)S(=O)(=O)c3ccccc3)cc2)cc1	-16%	-15%
94	CCOC(=O)C(NC(=O)c1ccccc1OCC)(Nc1ncccn1)C(F)(F)F (stereo not drawn)	?	.
95	COc1ccc(NS(=O)(=O)c2cccc(C(=O)N/N=C/c3ccccc3OC)c2)cc1	-17%	-22%
96	CCCOc1cccc(C(=O)NC(=S)Nc2cccc(C(F)(F)F)c2)c1	-12%	-9%
97	CCS(=O)(=O)n1nc(-c2ccc(OC)cc2)nc1SC	-7%	-21%
98	CC(=O)Nc1ccc(S(=O)(=O)NC2(C(F)(F)F)C(=O)Nc3c2c(=O)[nH]c(=O)n3-c2ccc(C)cc2)cc1 (stereo not drawn)	6%	-4%
99	C[C@@H]1CN([C@H](C)CO)C(=O)c2cc(NC(=O)Cc3ccccc3)ccc2O[C@H]1CN(C)Cc1ccc(Oc2ccccc2)cc1	?	?
100	Cc1cc(C)c(C#N)c(SCc2nc3ccccc3[nH]2)n1	-7%	-12%
101	COc1cc(OC)cc(C(=O)OCC(=O)Nc2ccc(F)cc2F)c1	-3%	-3%
102	CCn1c(SCC(=O)N2CCCc3ccccc32)nnc1-c1c[nH]c2ccccc12	-26%	.
103	COc1ccc(CNS(=O)(=O)c2ccc(Br)s2)cc1	-9%	0%
104	C=C(Cl)COc1ccc2c(CCCC)cc(=O)oc2c1	-10%	.
105	COc1ccc(OC)c(NC(=O)CCc2nnc3ccc(N4CCC(C)CC4)nn23)c1	-1%	-14%
106	O=C(NC(CO)Cc1ccccc1)c1ccccc1 (stereo not drawn)	2%	-8%
107	O=C(Nc1ccncc1)c1cccc(S(=O)(=O)N2CCN(c3ccc(F)cc3)CC2)c1	-29%	?
108	CCOC(=O)c1sc(NC(=O)COC(=O)CNC(=O)c2ccco2)c(C(=O)OCC)c1C	-10%	-14%
109	CCCN1CCC(C)(C(=O)Nc2ccccc2Oc2ccccc2)C1 (stereo not drawn)	-12%	i
